Screening results deposited in PubChem by National Center for Advancing Translational Sciences (NCATS).
Cruzain Triton: inhibitors of Trypanosoma cruzi cruzain with detergent. P25779. 200,000 tested, 0.43% active. purified cruzain, Z-FR-AMC fluorescence, 0.01% Triton. AID 1478. Potency, µM, inactives show max response, negative = inhibition, usual class: inhibitors;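 further: plate controls were neutral wells for no effect and buffer without enzyme for full effect; nearly all actives have a fitted effect of over 40% in size; top concentration of the series not given in the record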
Target sequence (P25779 123-467 limits assumed): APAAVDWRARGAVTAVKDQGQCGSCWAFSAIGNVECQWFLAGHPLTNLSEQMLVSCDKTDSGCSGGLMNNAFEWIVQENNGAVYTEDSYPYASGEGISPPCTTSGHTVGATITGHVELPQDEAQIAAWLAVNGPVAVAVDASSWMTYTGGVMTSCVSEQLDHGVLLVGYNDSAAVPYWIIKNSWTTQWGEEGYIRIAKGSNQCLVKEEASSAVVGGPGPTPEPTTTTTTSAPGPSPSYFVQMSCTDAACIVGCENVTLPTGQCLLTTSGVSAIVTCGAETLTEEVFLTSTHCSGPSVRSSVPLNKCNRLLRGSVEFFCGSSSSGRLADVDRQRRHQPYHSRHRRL
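Cysteine protease activity tested under reducing, mildly acidic conditions (100 mM sodium acetate pH 5.5, 5 mM DTT) plus 0.01% Triton X-100. Cruzain 1.5 nM; substrate Z-FR-AMC 2 uM; 15 min compound preincubation at room temperature.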
Lassa entry inh: blocks Lassa virus binding to or entry into cells. Potency, µM (series often up to 37.9 µM), inactives show at the top dose activity change, negative = inhibition, hits mostly inhibitors. Lassa virus pseudotype entry inhibition, cell reporter; control for the full effect not named in the record. 300,000 tested, 1.2% active; active means well fitted inhibition curve with a large enough effect; inconclusive means small, poorly fitted or top-dose-only effect, or effect the other way; inactive means flat fitted curve, though single readings scatter; tested in HEK293 cells; further: on the % scale 0 is the no-effect control and ±100 the full control effect; nearly all actives have a fitted effect of over 50% in size; luciferase read-out
SARS PLP yeast: blocks SARS-CoV papain-like protease in a yeast assay. S. cerevisiae expressing SARS-CoV PLpro, growth rescue; control for the full effect not named in the record. Potency, µM (highest dose often 32.9 µM), inactives show top-dose activity, positive = growth rescue. 330,000 tested, 0.19% active. AID 485353; active means well fitted rising curve with a large enough effect; inconclusive means small, poorly fitted or top-dose-only effect; inactive means no such curve, though single readings can be large or run the other way; further: 0% is about no effect; nearly all actives have a fitted effect of over 55% in size; growth read by luminescence after 48 h
RE007 growth inh: less growth of the S. pombe RE007 Vpr strain. Potency, µM (top dose mostly 92.2 µM), inactives show at the highest dose activity change, negative = less growth. 360,000 tested, 0.21% active. S. pombe RE007 Vpr strain, BacTiter-Glo ATP luminescence, 24 h; control for the full effect not named in the record; active = well fitted falling curve with a large enough effect; inconclusive = small, poorly fitted or top-dose-only effect; inactive = no such curve, though single readings can be large or run the other way;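 further: on the % scale 0 is the no-effect control and ±100 the full control effect; nearly all actives have a fitted effect of over 50% in size; the assay follows cell death caused by Vpr and the record does not say whether a fall means rescue or toxicity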
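Fission yeast strain RE007, carrying one chromosomally integrated HIV-1 vpr copy, was seeded at OD 0.01 in PMG+AL medium with 23 nL pinned compound. After 24 h at 30 °C and 99% humidity, viability was read by BacTiter-Glo luminescence.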
StopGo reporter: lowers the luciferase signal of an FMDV 2A StopGo reporter | human cells with a luciferase reporter of 2A StopGo recoding; control for the full effect not named in the record | Potency, µM (titrated, usually from 57.9 µM), inactives show at the highest dose signal change, negative = less light | 410,000 tested, 1.2% active | AID 1159524; active = well fitted falling curve with a large enough effect; inconclusive = small, poorly fitted or top-dose-only effect; inactive = no such curve, though single readings can be large or run the other way; tested in HEK293T cells; further: on the % scale 0 is the no-effect control and ±100 the full control effect; nearly all actives have a fitted effect of over 45% in size; luciferase light after 4 h
NS1 function inh: blocks influenza NS1 protein function; S. cerevisiae slowed by influenza A NS1, growth recovery by OD600; Potency, µM (doses to about 46.1 µM), inactives show at the top dose activity, positive = more growth; 270,000 tested, 0.4% active; AID 2326; active means well fitted rising curve with a large enough effect; inconclusive means small, poorly fitted or top-dose-only effect; inactive means no such curve, though single readings can be large or run the other way; further: nearly all actives have a fitted effect of over 50% in size
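Growth recovery, yeast-based: influenza A NS1 expressed in S. cerevisiae causes slow growth, and suppressors are detected by OD600. The parent strain without NS1 is used as positive control.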
Marburg entry inh: inhibitors of Marburg virus binding or cell entry; Potency, µM (titrated, usually from 37.8 µM), inactives show top-dose activity change, negative = inhibition, actives largely listed as inhibitors; Marburg virus pseudotyped entry inhibition, cell reporter; control for the full effect not named in the record; about a third of the inactives were read at about 46 µM; AID 540276; 300,000 tested, 1.8% active; active = well fitted inhibition curve with a large enough effect; inconclusive = small, poorly fitted or top-dose-only effect, or effect the other way; inactive = flat fitted curve, though single readings scatter; tested in HEK293 cells; about a fifth of its hits are not listed in these tables; further: on the % scale 0 is the no-effect control and ±100 the full control effect; luciferase read-out
Cruzain noTriton: blocks cruzain activity in detergent-free assay; purified cruzain, Z-FR-AMC fluorescence, no detergent; Potency, µM, for the others: max response, negative = inhibition, hits mostly inhibitors; 200,000 tested, 2.3% active;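 further: plate controls were enzyme without inhibitor for no effect and buffer without enzyme for full effect; nearly all actives have a fitted effect of over 40% in size; top concentration of the series not given in the record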
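Detergent-free condition (0.00005% Triton X-100) in acetate buffer pH 5.5 with DTT. 1.5 nM enzyme and compound were pre-mixed 15 min, then 2 uM Z-FR-AMC substrate added; reaction progress from fluorescence change between first and third reads (60 s).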
* = called active by the depositor; ? = inconclusive; . = no result given; & = joins results of further samples; [ ] = dose if it differs, or a comment. Unless noted, the call rests on the fitted dose curve; in most records, active means well fitted curve in the direction sought with a large enough effect; inconclusive means small, poorly fitted or top-dose-only effect, or another doubt; inactive means no such curve, though single readings can be large; an effect the other way counts as inactive or inconclusive. Potency means the concentration at half of the fitted maximal effect. No enrichment for hits; overall some 4.7% were active at least once.

Fields: Cruzain Triton | Lassa entry inh | SARS PLP yeast | RE007 growth inh | StopGo reporter | NS1 function inh | Marburg entry inh | Cruzain noTriton
1	O=C(COc1cccc(Cl)c1Cl)Nc1ccc2c(c1)CCC2
    -0.1% | ? | 6% | 1% | 28% | -2% | -3% | -9%
2	CCOC(=O)NNc1ccc(C(F)(F)F)cn1
    . | 12% | 1% | -2% | 5% | 1% | 7%[46.1 µM] | .
3	CC1(C)Oc2ccc(C(=O)Nc3ccccc3F)cc2N(CC(=O)N2CCOCC2)C1=O
    . | -12%[46.1 µM] | -1% | 1% | 28% | 0% | 23%[46.1 µM] | .
4	COc1cc(C(=O)Nc2ccc(Cl)c(-c3nc4ncccc4o3)c2)cc(OC)c1OC
    -5.3% | -15%[46.1 µM] | . | . | -23% | . | ? | ?
5	COc1ccc(C2C(C#N)=C(N)Oc3c2ccc2cccnc32)cc1OC (stereo not given)
    . | ? | 9% | 14% | 3% | 10% | ? | .
6	COc1cccc2oc3cc(C#Cc4ccccn4)ccc3c(=O)c12
    . | . | -13% | 7% | 18% | 0% | . | .
7	CC(C)(C)c1ccc(C(=O)N/C(=C\c2ccco2)C(=O)Nc2ccccc2C(=O)O)cc1
    . | -13% | 4% | 0% | -24% | ? | 20%[46.1 µM] | .
8	CCOC(=O)N1CCc2c(sc3c2c(=O)n(-c2ccc(CC)cc2)c(=O)n3CC(=O)c2ccccc2)C1
    -2.4% | -12%[46.1 µM] | . | . | -10% | . | 2%[46.1 µM] | -2%
9	CCOC(=O)C1C(C)=CC(=O)CC1c1ccco1 (stereo not given)
    3.6% | 15% | -2% | 13% | -10% | 6% | 5% | 11%
10	O=C(NCCc1ccccc1F)C1CCCN(c2nc3ccccc3s2)C1 (stereo not given)
    . | 6% | -8% | -17% | 1% | -32% | 12%[46.1 µM] | .
11	CC1CCCN(C(=S)Nc2ccc(F)cc2)C1 (stereo not given)
    . | -4% | 2% | -11% | 57%[activator] | -3% | 19%[46.1 µM] | .
12	CCOc1ccccc1NC(=O)CCn1cccc1
    . | 7%[46.1 µM] | 4% | 12% | -1% | . | ? | .
13	COC(=O)c1ccc(CN2CCCC(C(=O)Nc3cccc(-n4cccn4)c3)C2)cc1 (stereo not given)
    . | . | 2% | -7% | -12% | 1% | . | .
14	Nc1nc(Nc2ccccc2)sc1C(=O)c1ccccc1
    . | ? | -2% | 21% | 53%[activator] | -32% | -16%[46.1 µM] | .
15	Cc1c(-n2c(O)c(C3=c4ccccc4=NC3=O)sc2=S)c(=O)n(-c2ccccc2)n1C
    . | 9% | 2% | -11% | ? | . | 0%[46.1 µM] | .
16	Cc1cc(C)c2c(c1)/C(=N/NS(=O)(=O)c1ccc(Br)cc1)CCC2
    -2.1% | 0% | -8% | 17% | 8% | 2% | -2% | 1%
17	CCOc1ccc(CNC(=O)C2CCN(C(=O)c3sccc3-n3cccc3)CC2)cc1
    -1.6% | . | . | . | 15% | . | -3%[46.1 µM] | 1%
18	O=C(NCC(=O)N(c1ccc2c(c1)OCO2)C(C(=O)NC1CCCC1)c1ccncc1)c1ccco1 (stereo not given)
    -1.4% | -14% | 2% | -16% | -4% | -3% | 14% | 1%
19	CC(=O)Nc1cccc(NC(=O)C2CC(=O)N(CCc3ccc(F)cc3)C2)c1 (stereo not given)
    . | -24%[46.1 µM] | 1% | 10% | 7% | 5% | ? | .
20	COc1ccc(OC)c(/C=N/NC(=O)CC(=O)NC2CCCCC2)c1
    . | ? | 0% | 16% | 47%[activator] | -3% | ? | .
21	Cc1nnc(SCC(=O)Nc2ccc(C(N)=O)cc2)n1-c1ccccc1
    . | -17%[46.1 µM] | 2% | 3% | -1% | 6% | ? | .
22	Cc1cc(Cl)ccc1OCCCC(=O)Nc1cccc(-n2cnnn2)c1
    . | . | 0% | 2% | -4% | 7% | . | .
23	CC(C)C(Nc1ncnc2c1oc1ccccc12)C(=O)O (stereo not given)
    . | ? | 0% | 6% | 15% | -5% | 0%[46.1 µM] | .
24	CC1=C(C(=O)OCc2ccc(C)cc2)C(c2ccc(O)c([N+](=O)[O-])c2)NC(=O)N1 (stereo not given)
    . | 0%[46.1 µM] | 2% | 13% | -25% | . | -15%[46.1 µM] | .
25	Cc1cc(OCC(=O)Nc2ccc3oc(=O)ccc3c2)ccc1Cl
    . | 4% | -1% | 19% | 44%[activator] | 11% | 0%[46.1 µM] | .
26	COc1ccc(CNC(=O)CCc2nnc3n(C)c(=O)c4sccc4n23)cc1
    -2.4% | 27%[46.1 µM] | . | . | -10% | . | 7%[46.1 µM] | 13%
27	S=C(NCC1CCCO1)Nc1ccccc1Cl (stereo not given)
    2.2% | -1% | -4% | 12% | 16% | 8% | 14% | 2%
28	CC1(C)Oc2ccc3ccc(=O)oc3c2-c2cn[nH]c21
    -2.7% | ? | -3% | 26% | 6% | -31%&-10% | -17% | 11%
29	CC(=O)Nc1ccc2nc(-c3ccccc3)cn2c1
    -6.9% | ? | 0% | 3% | -18% | 2% | ? | -19%
30	CC1CCN(CC(C)CNC(=O)c2cc(-c3ccccn3)nc3ccccc23)CC1 (stereo not given)
    5.1% | 2% | -21% | -1% | 5% | -3% | ? | 5%

31	CC(=O)N1CCOc2ccc(S(=O)(=O)N3CCC(C(=O)Nc4ccc(F)cc4)CC3)cc21
32	COc1cc(OC)cc(C(=O)NCc2n[nH]c(=S)n2-c2ccccc2OC)c1
33	O=S(=O)(NCc1ccccc1)c1cccc2nonc12
34	CCc1nnc(NS(=O)(=O)c2ccc(N=Cc3c(C)[nH]n(-c4cccc(Cl)c4)c3=O)cc2)s1
35	CCCC(N)CCCCCC(=O)O (stereo not given)
screen / no.,31,32,33,34,35
Cruzain Triton,.,-0.5%,3.1%,-29%,-1.3%
Lassa entry inh,-5%[46.1 µM],-5%,-8%,3%,22%
SARS PLP yeast,?,-13%,.,6%,1%
RE007 growth inh,-12%,6%,-6%,-8%,-2%
StopGo reporter,?,.,11%,-1%,-5%
NS1 function inh,-4%,-9%,-22%,0%,1%
Marburg entry inh,0%[46.1 µM],-2%,?,?,?
Cruzain noTriton,.,-7%,-7%,?,7%

Four compounds drawn at random from the list so far, as already listed:
29	CC(=O)Nc1ccc2nc(-c3ccccc3)cn2c1
12	CCOc1ccccc1NC(=O)CCn1cccc1
6	COc1cccc2oc3cc(C#Cc4ccccn4)ccc3c(=O)c12
16	Cc1cc(C)c2c(c1)/C(=N/NS(=O)(=O)c1ccc(Br)cc1)CCC2
screen / no.,29,12,6,16
Cruzain Triton,-6.9%,.,.,-2.1%
Lassa entry inh,?,7%[46.1 µM],.,0%
SARS PLP yeast,0%,4%,-13%,-8%
RE007 growth inh,3%,12%,7%,17%
StopGo reporter,-18%,-1%,18%,8%
NS1 function inh,2%,.,0%,2%
Marburg entry inh,?,?,.,-2%
Cruzain noTriton,-19%,.,.,1%

More compounds:
36	CC(O)c1cccc(NC(=O)CC(c2ccccc2)c2ccccc2)c1 (stereo not given)
37	Cc1ccc(-c2nnn(CC(=O)N(CC(=O)NCc3ccccc3)c3cccc(C)c3C)n2)o1
38	CCOC(=O)c1oc2ccccc2c1CSc1nnnn1-c1ccc(OC)cc1
39	O=C(COc1ccc(Cl)cc1)Nc1ccc(C(=O)NCc2cccnc2)cc1
40	COc1cccc(C(=O)NCCS(=O)(=O)N2CC(C)CC(C)C2)c1 (stereo not given)
screen / no.,36,37,38,39,40
Cruzain Triton,.,0.3%,2.9%,-2.2%,.
Lassa entry inh,.,1%,?,-22%,1%
SARS PLP yeast,2%,-3%,0%,3%,0%
RE007 growth inh,1%,-10%,7%,-9%,-2%
StopGo reporter,-19%,-10%,2%,14µM*,-9%
NS1 function inh,21%,-13%,3%,-14%,.
Marburg entry inh,.,?,-16%&-16%,-27%,4%
Cruzain noTriton,.,-1%,18%,-1%,.

41	CCCc1c(NC(=O)Nc2ccc(Cl)cc2Cl)cnn1-c1ccccc1
42	C/C=C1/CN2C3CC1C(CO)(C(=O)OC)C2Cc1c3n(C)c2ccccc12 (stereo not given)
43	CC1(NC(=O)c2cccc(S(=O)(=O)N3CCN(c4ccccc4)CC3)c2)CCS(=O)(=O)C1 (stereo not given)
44	Fc1ccc(/C=N/Nc2ccccn2)cc1
45	COc1ccc(NC(=O)C(=O)NCC(=O)Nc2cc(OC)ccc2OC)cc1
screen / no.,41,42,43,44,45
Cruzain Triton,.,.,.,-7.3%,.
Lassa entry inh,?,.,-8%,?,5%
SARS PLP yeast,-1%,-1%,-3%,-3%,-1%
RE007 growth inh,0%,-5%,3%,-18%,-17%
StopGo reporter,0%,-23%,-22%,45%[activator],-14%
NS1 function inh,0%,-1%,.,21%,15%
Marburg entry inh,0.89µM*,.,-3%,?,-26%
Cruzain noTriton,.,.,.,-9%,.

46	Cc1cccc(NC(=O)Cn2c(=O)n(Cc3ccc(C(=O)NCc4ccc5c(c4)OCO5)cc3)c(=O)c3ccccc32)c1
47	CCOC(CN=c1nc(N(C)C)ss1)OCC
48	CCOc1ccccc1NC(=O)CSc1nnc(CNC(=O)c2cc(OC)c(OC)c(OC)c2)o1
49	Cc1cccc(C2=NN(c3ccccc3)[C@H](CO)[C@H]2c2ccccc2)c1
screen / no.,46,47,48,49
Cruzain Triton,6.1%,.,.,-1.0%
Lassa entry inh,13%[46.1 µM],-6%,11%[46.1 µM],.
SARS PLP yeast,.,.,2%,-75%
RE007 growth inh,.,-14%,12%,18%
StopGo reporter,8%,-27%,-1%,-19%
NS1 function inh,.,.,9%,.
Marburg entry inh,-23%[46.1 µM],?,10%[46.1 µM],.
Cruzain noTriton,4µM*,.,.,?
